Calb FLC = C. albicans growth modulation with fluconazole; growth inhibition, % (test concentration not listed); 300,000 tested, 0.57% active; C. albicans CaCi-2 (fluconazole-resistant clinical isolate) + fluconazole, Alamar Blue growth, 48 h;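 active means most replicates above 75%; inconclusive means exactly half above 75%; inactive means most below 75%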;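 further: all wells also contain fluconazole at 8 µg/ml as a sub-toxic cotreatment; 0% = median of DMSO wells and 100% = median of geldanamycin control wells; wells of about 8 µL received 7.5 nL stock; the first replicate is given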
RanGTP-Impb inh = inhibitors of RanGTP-importin-beta interaction, primary screen, biochemical, FRET, CFP-Ran, YFP-importin-beta, homogeneous. cell-free CFP-Ran/YFP-importin-beta FRET ratio. inhibition, % (concentration not given with the values). 300,000 tested, 1.1% active. AID 2216;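 active means most replicates above 15%; inconclusive means exactly half above 15%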;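 further: 0% = DMSO wells and 100% = Ran loaded with GDP instead of GTP; wells of about 40 µL received 100 nL stock; the first replicate is given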
ALR inh = human ALR oxidase inhibition via reduced H2O2; purified ALR, DTT oxidation, H2O2 HRP-luminol luminescence; AID 485317; P55789; 290,000 tested, 3.8% active; inhibition, % (concentration not given with the values);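 active means mean and each replicate at 75% or more; inconclusive means only one of the two met; inactive means neither met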;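 further: stock transfer was 7.5 nL into about 7.5 µL; 0% = neutral wells and 100% = wells with inactivated enzyme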
Target sequence (P55789 whole entry, looked up): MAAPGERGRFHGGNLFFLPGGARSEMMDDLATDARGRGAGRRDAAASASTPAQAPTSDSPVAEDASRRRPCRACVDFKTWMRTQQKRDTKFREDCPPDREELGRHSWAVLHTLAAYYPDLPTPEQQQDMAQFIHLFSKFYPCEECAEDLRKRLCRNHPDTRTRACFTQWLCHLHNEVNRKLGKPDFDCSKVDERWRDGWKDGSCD
LANA-H2A inh = blocks KSHV LANA binding to histone H2A/H2B; Q9QR71; cell-free LANA-H2A/H2B peptide, fluorescence polarization; inhibition, % (test concentration not listed); 320,000 tested, 0.6% active; AID 2629; in the data active means inhibition mostly above about 10%, no sharp cut-off; inactive means mostly below about 6.7%;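 further: stock transfer was 7.5 nL into about 10 µL; 0% = median of vehicle wells and 100% = median of positive control wells; one replicate is shown; the record names a cut of 25% in any replicate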
Vif TR-FRET = HIV-1 Vif–A3G interaction blockers – biochemical, TR-FRET, GST-Vif 1-94, biotin-A3G peptide, dose response retest, primary screen (AID 1117319). TR-FRET GST-Vif / biotin-A3G peptide binding; higher % means a stronger effect; test concentration not given here; strong numbers were not always called active. 260,000 tested, 0.57% active. one-dose inhibition, %; IC50 in µM for titrated hits;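 active means above the screen mean plus three standard deviations and confirmed in dose response; inconclusive means results disagree or hit not tested in dose response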;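 further: Vif residues 1-94 fused to GST binding biotinylated APOBEC3G peptide 110-148; 0% = full assay without inhibitor and 100% = GST in place of GST-Vif; retest series ran down from 100 µM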
Beta2AR agonist = activates human beta-2 adrenergic receptor causing internalization; P07550; Am2.2-beta2AR cells, FAP receptor internalization, flow cytometry; reference of the scale not given here; response, % (concentration not given with the values); 340,000 tested, 0.43% active; AID 504454;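 active means response above a set limit, near 3 SD of response in nonfluorescent compounds, cut at about 42% in these data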;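 further: stock transfer was 100 nL into about 11 µL; a reference agonist was the positive control; negative values mostly stem from fluorescent compounds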
Target sequence (P07550 whole entry, looked up): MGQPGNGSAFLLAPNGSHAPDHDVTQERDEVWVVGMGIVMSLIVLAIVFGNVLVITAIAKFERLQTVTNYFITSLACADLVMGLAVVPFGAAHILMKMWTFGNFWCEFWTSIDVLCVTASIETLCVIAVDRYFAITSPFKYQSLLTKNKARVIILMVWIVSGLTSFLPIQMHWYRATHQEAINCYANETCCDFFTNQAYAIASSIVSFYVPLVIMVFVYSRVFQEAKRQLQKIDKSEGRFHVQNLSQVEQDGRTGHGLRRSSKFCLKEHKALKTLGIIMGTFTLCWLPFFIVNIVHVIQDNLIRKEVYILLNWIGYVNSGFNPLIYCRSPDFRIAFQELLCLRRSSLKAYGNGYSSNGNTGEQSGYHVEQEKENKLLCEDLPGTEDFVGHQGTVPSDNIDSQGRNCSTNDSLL
HNF4A DNA FP = change in binding of human HNF4 alpha to DNA | P41235 | HNF4a-FITC DNA binding, fluorescence polarization, 1 h | activity change, % at 10 µM | 360,000 tested, 0.3% active; in the data active means activity change above about 30%, passing the limit was not always enough;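 further: controls were the assay level and a saturating level of protein; the project sought stronger binding though the title names inhibitors; some compounds called inactive have numbers as strong as hits; positive values seem to mean higher polarization but the record does not say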
Target sequence (P41235 whole entry, looked up): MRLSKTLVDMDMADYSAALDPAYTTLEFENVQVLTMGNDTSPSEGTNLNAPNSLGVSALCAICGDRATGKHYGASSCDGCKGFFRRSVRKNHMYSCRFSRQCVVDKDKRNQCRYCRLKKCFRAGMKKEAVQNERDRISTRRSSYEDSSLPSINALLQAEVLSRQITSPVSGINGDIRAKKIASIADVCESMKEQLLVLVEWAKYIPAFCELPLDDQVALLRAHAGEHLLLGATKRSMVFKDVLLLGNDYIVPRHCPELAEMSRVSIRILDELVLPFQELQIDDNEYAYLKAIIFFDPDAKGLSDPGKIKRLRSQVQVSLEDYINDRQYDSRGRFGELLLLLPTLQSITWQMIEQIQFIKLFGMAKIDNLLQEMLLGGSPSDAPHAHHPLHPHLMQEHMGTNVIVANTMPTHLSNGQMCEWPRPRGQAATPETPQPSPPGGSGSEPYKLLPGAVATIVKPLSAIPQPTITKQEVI
The depositor's hits bear a star; ? = inconclusive; . = no result given. Random draw from the library, and some 6.3% of all compounds hit somewhere here.

SMILES | Calb FLC | RanGTP-Impb inh | ALR inh | LANA-H2A inh | Vif TR-FRET | Beta2AR agonist | HNF4A DNA FP
O=C(Nc1ccc(Br)cc1)N1CCCCCC1 | -5 | 2.3 | -13 | -1.6 | -4% | -3 | -1.1
N#Cc1c(Cl)nc2c(c1C#N)CCCC2 | -8 | 1.6 | 97* | -0.1 | 10% | -7 | -3.5
O=C(COC(=O)/C=C/c1cccc(Cl)c1)NC1CC1 | . | . | 0 | 19* | -4% | 1 | 2.0
CC(C)CN1C(=S)SC(C)(C)C1n1oc(=O)n(-c2ccccc2)c1=O (configuration not stated) | 8 | 1.5 | 3 | 0.7 | -9% | 4 | -5.9
Cc1ccc(CNC(=O)C(=O)NCC2CCCO2)cc1 (configuration not stated) | -1 | 0.6 | 0 | 0.9 | 4% | 1 | -1.2
CSc1ccc(Cl)c(C(=O)NCc2ccco2)c1 | -35 | 1.4 | 2 | -1.0 | 4% | 9 | -0.6
O=C(O)c1cccc([N+](=O)[O-])c1C(=O)Nc1nc2ccccc2s1 | -21 | 3.2 | -6 | -7.5 | 5% | -6 | 1.7
O=C(CC1CCCCC1)NCC1CCCO1 (configuration not stated) | 8 | -2.8 | 0 | -1.1 | 4% | 1 | -2.2
CCOC(=O)C1=C(C)NC(=O)NC1c1ccc([N+](=O)[O-])o1 (configuration not stated) | -3 | 5.8 | -26 | 3.7 | . | 1 | -3.6
CCOC(=O)c1cc(-c2ccccc2)n(CCC(=O)N2CCN(c3ccccc3OC)CC2)c1C | 12 | 4.8 | -4 | 0.9 | -5% | 11 | -1.6
O=c1c2c3c(sc2nc2sc(CN4CCCCC4)cn12)CCCC3 | -3 | 0.9 | -2 | -2.6 | -1% | . | .
COc1cc(/C=N/NC(=O)c2cnn3c(C)cc(-c4ccccc4)nc23)ccc1O | 12 | 1.5 | 37 | -3.9 | 3% | 13 | -0.1
CC(C)OC(=O)CSc1nnc(-c2ccccc2)n1N | -3 | -2.3 | -1 | -0.2 | 6% | -4 | -0.4
CC1(C)CC(=O)C=C(NCCN2CCN(C(=O)Nc3ccc(Cl)c(Cl)c3)CC2)C1 | -12 | 1.0 | 17 | 3.5 | 2% | -6 | -1.6
CC1(C(=O)OCC(=O)Nc2nc(-c3ccc(F)c(F)c3)cs2)CC1(Cl)Cl (configuration not stated) | -7 | 5.1 | 0 | 3.1 | 0% | 23 | -5.2

Structures from the list above that have four or more nitrogen atoms (3):
SMILES | Calb FLC | RanGTP-Impb inh | ALR inh | LANA-H2A inh | Vif TR-FRET | Beta2AR agonist | HNF4A DNA FP
COc1cc(/C=N/NC(=O)c2cnn3c(C)cc(-c4ccccc4)nc23)ccc1O | 12 | 1.5 | 37 | -3.9 | 3% | 13 | -0.1
CC(C)OC(=O)CSc1nnc(-c2ccccc2)n1N | -3 | -2.3 | -1 | -0.2 | 6% | -4 | -0.4
CC1(C)CC(=O)C=C(NCCN2CCN(C(=O)Nc3ccc(Cl)c(Cl)c3)CC2)C1 | -12 | 1.0 | 17 | 3.5 | 2% | -6 | -1.6

(more compounds)
SMILES | Calb FLC | RanGTP-Impb inh | ALR inh | LANA-H2A inh | Vif TR-FRET | Beta2AR agonist | HNF4A DNA FP
Brc1cnc(OCc2ccccc2)nc1OCc1ccccc1 | . | . | . | . | 3% | 1 | 1.1
O=C(CCCc1c[nH]c2ccccc12)Nc1ccc2ccccc2c1 | 11 | 5.8 | -1 | 0.3 | -6% | -1 | 4.5
O=C1CSc2ccc(C(=O)Nc3cccc(S(=O)(=O)Nc4ccc(Br)cc4)c3)cc2N1 | -1 | 2.9 | -14 | -0.4 | 11% | -2 | -3.1
CCOC(=O)n1c(=O)n(Cc2cccc(C)c2)c2ccccc21 | 15 | 2.6 | -2 | 1.6 | . | -5 | 4.6
Cc1cc(C(=O)NCCN2CCN(c3cccc(Cl)c3)CC2)n(-c2ccccc2)n1 | . | . | 10 | 1.5 | 22% | -1 | 1.7
CC1CCCCN1C(=O)CCS(=O)(=O)Cc1ccccc1 (configuration not stated) | -11 | 2.5 | . | 0.2 | . | 0 | -1.2
CN(Cc1ccc(F)cc1)C(=O)c1ccc(NC(=O)CC2SC(N3CCCC3)=NC2=O)cc1 (configuration not stated) | 19 | 0.2 | 2 | 2.8 | 1% | -8 | -0.5
CC(NC(=S)Nc1c(Br)cccc1OC(F)F)C(C)(C)C (configuration not stated) | -10 | -3.7 | 40 | 3.1 | 4% | -1 | -1.0
Cn1c(=O)c2c(ncn2CC(=O)OCC(=O)Nc2ccccc2)n(C)c1=O | -7 | -1.1 | 1 | -2.1 | 5% | -1 | 1.1
COc1ccc(-c2csc(NC(=O)c3nc(-c4ccccc4)oc3C)n2)cc1 | -18 | -0.9 | -10 | 3.8 | -5% | 1 | 0.9
CC#CCN1c2ccccc2[C@]23C[C@@H](C(=O)OC)N(C(=O)c4ccc(Br)cc4)C2=NC(C(=O)OC)=C(C(=O)OC)[C@H]13 | 14 | -0.4 | . | 1.8 | . | . | .
C=CCn1c(=O)c2c(nc3n2CCCN3Cc2ccccc2)n(C)c1=O | 5 | ? | -4 | 5.4 | . | -6 | -0.5
O=C(N/N=C/c1cccc2cccnc12)c1ccccc1O | 0 | 4.6 | 5 | -6.0 | ? | 28 | 1.1
O=C1/C(=C/c2cccnc2)SC(=S)N1Nc1ccccc1 | -2 | -0.9 | 92* | -1.4 | . | 0 | -4.0
O=S(=O)(c1cnc(Cl)c(Br)c1)N1CCCCCC1 | -8 | 3.3 | 6 | -5.7 | 18% | 4 | 0.1
N#CCCn1c(-c2nonc2NC(=O)c2ccccc2Cl)nc2ccccc21 | -1 | 2.8 | -6 | -1.2 | -15% | -10 | 4.6
CSc1nc2[nH]ncc2c(=O)n1-c1ccccc1 | -9 | 3.6 | -3 | 2.2 | -5% | -1 | -1.1
C=CCN1/C(=C(\C#N)C2=NS(=O)(=O)c3ccccc32)N(C)c2ccccc21 | -4 | 2.2 | 1 | 2.0 | 1% | -8 | -1.5
Cn1c(CNC(=O)c2cccs2)nnc1SCC(=O)Nc1ccc(Cl)cc1 | -3 | -0.8 | -4 | -4.6 | ? | -2 | 2.5
CCN1CCN(C(=S)Nc2cccc(C(F)(F)F)c2)CC1 | -1 | 6.3 | -2 | 1.4 | 13% | 1 | -8.6
CCc1ccccc1NC(=O)C1=CC(c2cccs2)=NS(=O)(=O)N1C | 4 | -5.8 | -10 | -4.0 | . | 6 | -1.6
CCOc1nc(-c2ccc(Cl)cc2Cl)ccc1C#N | 2 | -1.5 | -18 | 5.9 | 3% | -1 | -0.1
Cn1cc(CCC(=O)N2CCCC(CCC(=O)NCc3ccccc3F)C2)cn1 (configuration not stated) | 0 | ? | -2 | -3.6 | 5% | -3 | -1.7
Cc1ccc(NC(NC(=O)c2ccccn2)C(Cl)(Cl)Cl)cc1 (configuration not stated) | -8 | 1.3 | 99* | 1.2 | 22% | -6 | -1.1
Nc1nn2cc(-c3ccc(Br)cc3)nc2c2ccccc12 | 99* | -4.4 | -8 | 6.6 | ? | 3 | -1.3
Cc1ccc(OCCCC(=O)Nc2nncs2)cc1 | 31 | -1.4 | . | -1.8 | -7% | 14 | -0.9
COc1ccc2oc3cc(C)[n+]([O-])c(-c4ccc(C)cc4)c3c2c1 | -1 | 5.4 | 93* | 6.0 | . | -13 | -0.8
Cc1cc(Cl)c2oc(C(=O)N(C)CCc3cnn(C)c3)c(C)c2c1 | 3 | ? | 2 | -2.4 | . | -7 | 4.0
COc1cc2cc(-c3ccc(OC)c(OC)c3C)nc(N)c2cc1OC | -3 | -0.4 | 14 | 0.1 | . | 27 | 5.1
O=C(O)CSc1nnc(COc2cccc3ccccc23)o1 | 4 | 2.9 | -20 | 3.4 | -5% | 0 | 0.0
O=C(NCCc1ccc2c(c1)OCCO2)c1cccc(F)c1 | -19 | -0.4 | -24 | 4.7 | 0% | 1 | 1.7
CCCC(C(=O)NCc1ccc(OC)cc1)N(Cc1ccco1)C(=O)c1snc(C(N)=O)c1N (configuration not stated) | 20 | 6.3 | -1 | -2.3 | 9% | 3 | 1.3
COc1cccc(C2C(C#N)=C(N)Oc3cc(N)ccc32)c1OC (configuration not stated) | -6 | 105* | 61 | -9.8 | -1% | -3 | 1.6
O=C(CNC(=O)c1ccc(S(=O)(=O)N2CCCCC2)cc1)N/N=C/c1ccco1 | 7 | -1.3 | 42 | -2.6 | 20% | -2 | -6.5
CCOC(=O)C(C(C)=O)C(c1ccc(OC)cc1)C(C(C)=O)C(=O)OCC (configuration not stated) | 4 | 1.6 | -17 | -5.2 | -1% | -3 | 2.2
Cc1ccc2c(c1)-c1c(ssc1=S)C(C)(C)N2C(=O)CSc1nncn1C | -5 | -0.7 | 4 | 3.1 | 4% | 7 | -3.3
COc1ccc(CNC(=O)Nc2cc(C)cc(C)c2)cc1 | -2 | 2.3 | . | 0.9 | 11% | 2 | -1.5
Nc1nc(SCC(=O)O)[nH]c(=O)c1NC(=O)c1ccco1 | 1 | 4.8 | -14 | 0.8 | . | 2 | 1.4
Fc1ccc(C2=CC(c3ccco3)n3ncnc3N2)cc1 (configuration not stated) | -2 | -33 | 22 | 3.5 | -1% | -1 | -48
O=C(CN1CCCCC1)Nc1c2c(nc3ccccc13)N(c1ccccc1)CC2 | 16 | 2.7 | 10 | 0.0 | . | -10 | -1.7
CC(C)C(=O)Nc1ncc(Cc2ccc(Cl)cc2)s1 | -15 | 3.0 | 0 | 4.2 | ? | -9 | 11
CCOc1c(OC)cccc1C1CC(=O)Nc2cc(OC)c(OC)cc21 (configuration not stated) | 5 | ? | -6 | 1.1 | -5% | -8 | 1.6
Cn1c(=O)cc(C(=O)N/N=C/c2ccc(F)cc2)[nH]c1=O | -8 | 9.2 | -9 | -2.5 | 24% | -4 | 3.8
N#C/C(=C\c1cccc(OCC(=O)O)c1)c1nc2ccccc2[nH]1 | 2 | -1.5 | 98* | -2.1 | . | -7 | 0.7
O=C(COc1ccc(-c2ccccc2)cc1)N1CCCC1 | -15 | -2.9 | -11 | 0.0 | 6% | -4 | -0.9
CCc1ccc(NC(=O)C2CCN(S(C)(=O)=O)CC2)cc1 | -7 | 0.5 | 1 | 3.5 | -4% | 0 | 3.4
CNC(=O)c1ccc(=O)n(Cc2cccc(C(F)(F)F)c2)c1 | 2 | 2.9 | -8 | 0.4 | -2% | -12 | 1.7
FC(F)(F)c1cccc(NC(=S)NNC(=S)Nc2ccc(Cl)cc2)c1 | 6 | -2.3 | -7 | 1.8 | 21% | . | .
Cc1ccc(-c2nnc(Nc3ccc4c(c3)nc(C)n4C)c3ccccc23)cc1 | 55 | 4.7 | 1 | -3.8 | 2% | 10 | 5.4
CCN(CC)Cc1cc(C(C)=O)ccc1OCC(C)C | -9 | 6.6 | -8 | -1.9 | 0% | -5 | -2.3
O=CN1c2ccccc2CSc2ccccc21 | 11 | 1.5 | 56 | 1.8 | . | 2 | -0.6
CCN1N=C(c2ccccc2)Cn2c1nc1ccccc12 | 44 | 8.5 | -4 | 4.6 | 11% | -2 | -1.5
CC1(C)CC2CC(C)(CN2C(=O)COC(=O)c2ccc(Cl)c(N)c2)C1 (configuration not stated) | 22 | -4.5 | -12 | 9.0 | -5% | -5 | 5.7
Cc1cc(=O)oc2cc(OCC(=O)NC3CCN(Cc4ccccc4)CC3)ccc12 | 5 | 1.6 | -3 | 1.1 | 5% | 13 | -0.4
CC(Oc1ccc(Cl)cc1Cl)C(=O)NC1CCSC1=O (configuration not stated) | 6 | 5.0 | -1 | 2.8 | 2% | -3 | -3.4
Nc1cccc(C(=O)OCC(=O)NC2CCCc3ccccc32)c1 (configuration not stated) | -77 | -2.4 | -24 | -3.6 | -2% | -4 | 1.1
COc1cccc(OCCn2cc(/C=N/NC(=O)c3ccncc3)c3ccccc32)c1 | 7 | -1.1 | -1 | 4.6 | . | 10 | 0.5
